Biofilm kill mix: mixtures killing C. albicans biofilm; 0.02% of 120,000 active; inhibition, % at 7.6 µM; C. albicans biofilm persisters + clotrimazole, fluorescence viability; primary screen in compound mixtures of four per well;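 active = inhibition above 30.3% in the primary screen of four-compound pools, then above 30% when the compound was retested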;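 also: compounds exposed to preformed 24 h biofilms for 48 h; the number belongs to the whole pool; some results filed as inactive read as strong as hits; inactives centre near 12; 0% = biofilm with clotrimazole alone and 100% = kill control; retested singly at about 60 µM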
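Assay system: C. albicans biofilms / Medium: RPMI/MOPS medium, pH 7.0 / Schedule: biofilm formation 24 h, compound exposure 48 h, 37 °C / Measured by: Alamar Blue fluorescence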
* hit, by the source's call. The list is partial (hit frequency here may not be typical).

structure | Biofilm kill mix
Cc1cccc(N(C)S(=O)(=O)c2ccc3c(c2)NC(=O)CC(=O)N3)c1 | 16
O=C(Cc1ccccc1)NNC(=O)C1CCN(c2ncccn2)CC1 | 12
CCn1nc(C)c(C2C(C#N)=C(N)Oc3n[nH]c(C)c32)c1C (centres undefined) | 16
CCOc1ccc(OCc2cccc(C(=O)Nc3ccc(CN4CCCCC4)cc3)c2)cc1 | 11
Cc1sc(NC(=O)c2ccccc2F)c(CN2CCCCC2C)c1C (centres undefined) | 5
COCCCn1c(Cc2csc(Nc3ccccc3)n2)nnc1SCC(N)=O | 11
CN(C)C=Nc1ncc2c3ccccc3n(Cc3ccccc3)c2c1C#N | -1
CSc1cccc(NC(=S)N2CCCN(Cc3ccc(F)cc3)C2)c1 | 12
COc1ccc(NC(=O)CSc2nc3ccccc3n2-c2ccccc2)c([N+](=O)[O-])c1 | 22
COc1ccc(-c2nnc(NC(=O)C3CC3)o2)cc1 | 16
Cc1nc2nc[nH]n2c(=O)c1NS(=O)(=O)c1ccc(C(C)(C)C)cc1 | 29
Cc1ccc(CN2CCN(C(=O)c3ccco3)CC2)cc1 | 13

The final 5 compounds of the part before lead into the next.
structure | Biofilm kill mix
CSc1cccc(NC(=S)N2CCCN(Cc3ccc(F)cc3)C2)c1 | 12
COc1ccc(NC(=O)CSc2nc3ccccc3n2-c2ccccc2)c([N+](=O)[O-])c1 | 22
COc1ccc(-c2nnc(NC(=O)C3CC3)o2)cc1 | 16
Cc1nc2nc[nH]n2c(=O)c1NS(=O)(=O)c1ccc(C(C)(C)C)cc1 | 29
Cc1ccc(CN2CCN(C(=O)c3ccco3)CC2)cc1 | 13
COc1ccc(-c2nnn(-c3ccc(Cl)cc3Cl)c2N)cc1 | 21
CC(Sc1nc(-c2ccccc2)cc(C(F)(F)F)n1)C(=O)Nc1sc2c(c1C(N)=O)CCC2 (centres undefined) | 7
COc1cc(NS(=O)(=O)c2ccc(NC(=S)NC(=O)/C=C/c3ccc(F)cc3)cc2)ncn1 | 4
Cc1c(NC(=S)Nc2ccc(Cl)cc2)c(=O)n(-c2ccccc2)n1C | 14
Cc1ccc(/C([O-])=C(/C(=S)Nc2ccc(SC(F)F)cc2)[n+]2ccccc2)cc1[N+](=O)[O-] | 7
COc1ccc(N=Cc2oc3ccc4ccccc4c3c2O)cc1 | 16
C/C(=N\NS(=O)(=O)c1ccc([N+](=O)[O-])cc1)c1ccc(NC(=O)c2ccco2)cc1 | 16
CC(=O)NCCOC(=O)Nc1sc(=S)n(C)c1C | 11
O=C(Nc1ccc(S(=O)(=O)Nc2nccs2)cc1)c1cnc(Cl)c(Cl)c1 | -3
COc1ccc(N2C(=O)CC(NNC(=O)c3cccnc3)C2=O)cc1 (centres undefined) | 13
O=c1c([N+](=O)[O-])c(N2CCOCC2)c2ccccc2n1-c1ccccc1 | 24
COc1ccc(NC(=O)c2cc3c(Cl)nc4ccccc4c3s2)cc1OC | 10

(list continues)
structure | Biofilm kill mix
O=c1c(Cl)c(N/N=C/c2ccc(Cl)cc2)cnn1-c1ccccc1 | 16
COC(=O)CSc1nccc(-c2cccs2)n1 | 9
O=C(O)C1OC(Oc2c(-c3ccc(O)c(O)c3)oc3cc(O)cc(O)c3c2=O)C(O)C(O)C1O (centres undefined) | 9
CCc1nnc(NC(=O)c2ccc(S(=O)(=O)N(C)c3ccccc3)cc2)o1 | 5
CC(C)(C)NC(=O)C(c1ccncc1)N(Cc1ccco1)C(=O)c1ccc(-c2ccccc2)[nH]1 (centres undefined) | 1
Cc1cc(C)c([N+](=O)[O-])cc1NCC(=O)N1CCN(c2ccccc2)CC1 | 10
COC(=O)c1ccc2c(c1)N(C)S(=O)(=O)c1cnc(SCC(=O)C(C)(C)C)nc1-2 | 15
COc1ccc(CCn2c(=S)[nH]c3cc(C(=O)N4CCOCC4)ccc3c2=O)cc1OC | 8
CC(=O)Nc1ccc2c(c1)CCCC2=O | 2
CCOC(=O)C1=C(C)NC(C)=C(C(=O)OCC)C1 | 11
COc1ccc(CC(=O)O/N=C(\N)c2cccc([N+](=O)[O-])c2)cc1 | 11
COC(=O)c1ccc(C(NC(=O)OCc2ccccc2)/C(F)=C/[C@@H](C)C(=O)NCc2ccc(OC)c(OC)c2)cc1 (some centres undefined) | 18

Further entries.
structure | Biofilm kill mix
CCOc1ccccc1NC(=O)C(OC(=O)c1ccc(CC)cc1)c1ccccc1 (centres undefined) | 9
CCCCOC(=O)c1nc[nH]c1C(=O)OCCCC | 10
Cc1[nH]c2ccccc2c1C(=O)CN1C(=O)C(=O)N(Cc2ccco2)C1=O | 9
CCOC(=O)c1c(NC(=O)Cn2cnc([N+](=O)[O-])n2)sc2c1CCCC2 | 15
CC1(C)CC(=O)C=C(C(=O)N2CCCC(CCC(=O)NCc3ccccc3F)C2)O1 (centres undefined) | 11
CCOc1ccc(S(=O)(=O)N(CC)CC)cc1NS(=O)(=O)c1ccc(F)c(F)c1F | 9
COc1cccc(C(=O)N2CCC(N3CC(C)OC(C)C3)CC2)c1 (centres undefined) | 6
CCOC(=O)c1c(N)sc(C(=O)Nc2ccccc2F)c1C | 16
C/C(=N\NC(=O)c1ccccc1)c1ccc(-n2ccnc2)cc1 | 7
CCC(C)NC(=O)c1ccccc1-c1nc2ccccc2[nH]1 (centres undefined) | 8
Cc1cc(-c2cc(C(=O)O)c3ccccc3n2)c(C)s1 | 14
Cc1ccc(NS(=O)(=O)c2cc(-c3n[nH]c(=O)c4ccccc34)ccc2C)cc1 | 15

Following part:
structure | Biofilm kill mix
COc1ccc(NC(=O)c2cc3cccc(OC)c3oc2=Nc2ccc(C(=O)O)cc2)cc1OC | 5
O=S(=O)(Nc1nc2ccccc2nc1NCC1CCCO1)c1cccc(Cl)c1 (centres undefined) | 0
CCOc1cc(N2CCOCC2)c(OCC)cc1NC(=O)CSc1ncn[nH]1 | 0
COc1ccc2[nH]c3c(=O)n(/N=C/c4ccc(OC)c(CN5CCCC5)c4)c(C)nc3c2c1 | 15
CCOc1cc(NC(=O)c2cccs2)c(OCC)cc1NC(=O)c1ccccn1 | 21
Cc1cccc(-c2cc(N)n(-c3ccccc3)n2)c1 | -8
C#CCOCCOCCOCCNc1nc(N2CCN(C(=O)[C@H](CCCCN)n3cc(C(N)CO)nn3)CC2)nc(N2CCN(C(=O)[C@H](CCC(=O)O)n3cc(C(N)Cc4ccc(O)cc4)nn3)CC2)n1 (some centres undefined) | 14
CCOC(=O)NC(c1ccc(C(C)C)cc1)C(Cl)(Cl)Cl (centres undefined) | 5
CCOCc1[nH]c(=S)[nH]c(=O)c1Cc1ccc(OCC)cc1 | 9
O=C(NCc1cccs1)C1CC1 | 14
Cc1ccc(C)c(NC(=S)Nc2cccnc2)c1 | 21
Cc1ccc(NNC(=O)c2c(C)noc2C)cc1Cl | 14

(cont.)
structure | Biofilm kill mix
CC(C)(C)NC(=O)C1CC(=O)OC12CCOC(C)(C)C2 (centres undefined) | 12
C(=C\c1nc(-c2cccnc2)no1)/c1ccccc1 | 14
C/C(=C\C(=S)Nc1ccccc1)Nc1cccc2ccccc12 | 12
COc1cccc(-n2nnnc2SCC(=O)NCCc2ccc(OC)c(OC)c2)c1 | 13
OCCC1CN(Cc2nc3c(s2)CCCC3)CCN1CCc1ccccc1 (centres undefined) | 0
COc1ccc(C(=O)Nc2ccc(Cl)cc2C(=O)NCc2ccco2)cc1 | 12
COC(=O)c1ccc(C)c(NC(=S)NCc2ccc(Cl)cc2)c1 | 10
CCc1ccc(NC(=O)N2CCN(c3ccc(F)cc3)CC2)cc1 | 13
COc1ccc(NC(=O)NCCc2ccc(Cl)cc2)cc1OC | -11
NC(=NCCc1c[nH]c2ccccc12)NC(=O)c1ccc(Cl)cc1 | 22
Cc1ccc(C)c(NS(=O)(=O)c2ccc(OCC(=O)NCc3ccccn3)cc2)c1 | 14
CCOc1ccc(-c2csc(NC(=O)c3ccc(S(=O)(=O)N4CCc5ccccc5C4)cc3)n2)cc1 | 4

Next part.
structure | Biofilm kill mix
CC(=O)NCc1ccc(S(=O)(=O)N/N=C/c2ccccc2)cc1 | 4
COc1cccc(C(=O)NCCCn2ccnc2)c1 | 5
c1nc(N2CCC3(CC2)OCCO3)c2[nH]cnc2n1 | 14
O=C(COC(=O)c1cc(-c2cccs2)nc2ccccc12)NC1CCS(=O)(=O)C1 (centres undefined) | 6
COc1cc(/C=C2\SC(=S)N(C(Cc3ccccc3)C(=O)O)C2=O)ccc1O (centres undefined) | 6
COc1ccccc1NC(=S)NCc1cccs1 | 3
C=C(C)C(=O)N1CC2(CC(c3cccc(NC(=O)/C=C\C)c3)=NO2)C[C@H]1C(N)=O (some centres undefined) | 14
CCCCNC(=O)COC(=O)c1cc(Br)ccc1Cl | 18
C/C(=N\NC(=O)c1c(Br)c(C)nn1C)c1cccc(NC(=O)c2ccccc2F)c1 | 5
O=C1CCCCC1Sc1nnc(Nc2ccccc2)s1 (centres undefined) | -10
Cn1c(=O)c(C(=O)CN2CCCCCC2)c(N)n(Cc2ccccc2)c1=O | 1
COc1ccc(-c2c(C)n([O-])c3c([n+]2=O)CCCCC3)cc1 | 20

Following part
structure | Biofilm kill mix
O=C(N/N=C/c1sc(N2CCCCC2)nc1-c1cccs1)C1CC1 | 16
Cc1ccc(NC2=C(Cl)C(=O)OC2OC(=O)c2ccccc2C)cc1 (centres undefined) | 1
O=Cc1cnc(N2CCN(c3ccccc3)CC2)s1 | 5
CCCCCCCN1C2=NCCCN2c2ccccc21 | 6
CCC/C=N/NC(=O)c1ccc(F)cc1 | 10
Cc1ccc(S(=O)(=O)Oc2ccccc2/C=N/Nc2ccc(C(=O)O)cc2)cc1 | 16
O=C(COC(=O)COc1ccccc1[N+](=O)[O-])Nc1ccccc1Br | 18
CN(C)S(=O)(=O)c1ccc(C(=O)Nc2nnc(-c3cccs3)o2)cc1 | 25
O=C1NC2(CCSC2)C(=O)N1CC(=O)N(Cc1ccccc1)C1CCS(=O)(=O)C1 (centres undefined) | 7
O=c1nc(N2CCOCC2)nc(N/N=C/c2ccc3c(c2)OCO3)[nH]1 | 1
CCCCC(=O)Nc1ccccc1C(C)C | 24
COC(C[C@@H]1O[C@@H]1[C@H](O)COCc1ccccc1)OC | 22

Compounds from the list above that have a cyano group (2):
structure | Biofilm kill mix
CCn1nc(C)c(C2C(C#N)=C(N)Oc3n[nH]c(C)c32)c1C (centres undefined) | 16
CN(C)C=Nc1ncc2c3ccccc3n(Cc3ccccc3)c2c1C#N | -1

The list continues:
structure | Biofilm kill mix
COc1ccc(-c2[nH]ncc2CN2CCC(OCc3ccccc3)CC2)c(F)c1 | 22
COc1ccc(C(=O)NNC(=S)NC(=O)/C=C/c2cccs2)cc1 | 3
COC(=O)c1c(NC(=O)c2ccco2)sc(C(=O)N(C)C)c1C | 7
CCC(C)C(=O)Nc1nccs1 (centres undefined) | 3
CCOC(=O)C1=C(C)C2C3C(=O)N(c4cc(C)ccc4C)C(=O)C3C1(C)C1C(=O)N(c3cc(C)ccc3C)C(=O)C21 (centres undefined) | 9
CCNc1nc(-c2ccc(OC(F)F)cc2)c(C)s1 | 5
Cc1ccc(NC(=O)c2ccc(N3CCOCC3)c([N+](=O)[O-])c2)cc1S(=O)(=O)N1CCOCC1 | 23
CCOC(=O)N1CCN(C(=O)Cn2cnc3ccccc3c2=O)CC1 | 8
c1ccc(OCc2nnc3n2CCCCC3)cc1 | -2
CCC(=O)Nc1ccc(NC(=O)c2ccccc2)nc1 | -2
COc1ccccc1/C=C/C=N/n1c(-c2ccc(Cl)cc2Cl)n[nH]c1=S | -6
CCn1cc(C(=O)O)c(=O)c2cc(F)c(N3CCN(C(=S)NC(=O)c4ccccc4Cl)CC3)cc21 | 26

Later entries
structure | Biofilm kill mix
COc1ccccc1CCNC(=O)CSc1nnc2ccc(-c3cccnc3)nn12 | 12
O=C(NC(=S)Nc1ccc(S(=O)(=O)Nc2nccs2)cc1)c1cccc(F)c1 | 1
O=C(NNc1cccc([N+](=O)[O-])c1)/C(=C\c1cccnc1)NC(=O)c1ccccc1 | 12
O=C1c2ccccc2C(=O)N1OCc1c(F)cccc1Cl | 12
COc1ccc([N+](=O)[O-])cc1NC(=O)CCN1CCN(c2ccccc2)CC1 | 11
NNC(=O)C1CC1c1ccc(Cl)cc1 (centres undefined) | 17
CCCC1=NN(C(=O)Cc2ccc(OC)cc2)C(O)(C(F)(F)F)C1 (centres undefined) | 9
O=C(NC1CCN(Cc2ccccc2)CC1)c1ccc(N2CC3CC(C2)c2cccc(=O)n2C3)c([N+](=O)[O-])c1 (centres undefined) | 16
CCOc1cc(/C=N/NC(=O)c2cccnc2)ccc1OCC(=O)N(C)C | 9
CCOc1ccc(/C=C2\SC(=S)N(Nc3ccccc3)C2=O)cc1OC | 20
COc1ccc(Cl)cc1NC(=S)NCCC(c1ccccc1)c1ccccc1 | 7
CC(C)c1ccc(NC(=O)c2cc3c(=O)n(C)c4ccccc4c3n2C)cc1 | 24

Later entries:
structure | Biofilm kill mix
COc1ccc(/C=C/C(=O)N2CCC(C(N)=O)CC2)cc1S(=O)(=O)N1CCOCC1 | 9
NCCNc1cc(N2CCCC2)ccc1[N+](=O)[O-] | 22
O=C(Nc1ccc(O)c(-c2nc3ccccc3o2)c1)C1(c2ccc(Cl)cc2)CCCC1 | 14
O=C(Nc1cc([N+](=O)[O-])ccc1F)C1CC1 | 23
CN(C)CCCN1C(=O)c2cccc3c(Br)ccc(c23)C1=O | 12
COc1ccc(/C=C/C(=O)NCC(=O)N/N=C(/CCC(=O)O)c2ccccc2)cc1 | 19
Cc1nc(NC(=O)c2ccccc2)nc2cc3c(cc12)OCO3 | 10
CC1CCCCN1Cc1c(O)ccc2c(=O)c(-c3nc4ccccc4s3)c(N)oc12 (centres undefined) | 5

Of the compounds above, these contain a CF3 group.
structure | Biofilm kill mix
CC(Sc1nc(-c2ccccc2)cc(C(F)(F)F)n1)C(=O)Nc1sc2c(c1C(N)=O)CCC2 (centres undefined) | 7
CCCC1=NN(C(=O)Cc2ccc(OC)cc2)C(O)(C(F)(F)F)C1 (centres undefined) | 9
